Assay outcomes (PubChem BioAssay)
RGS16-Gao HTS – modulates binding between human RGS16 and Galphao | O15492+P09471 | bead-based flow cytometry RGS16-Galphao binding, fluorescence; actives lie on both sides | binding response (% of control), % at 10 µM | 0.38% of 220,000 active | AID 1441;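 active = below 25% or above 175%, edge rows of some plates excepted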;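 also: Galphao activated by GDP with aluminum fluoride before binding; 100% = wells without compound and 0% = beads without RGS; some results beyond the cut were filed as inactive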
Insulin prom inh – TRM-6 insulin promoter activity inhibition | TRM-6 cells (human fetal islet line), insulin promoter-eGFP reporter, imaging; reporter expression induced with tamoxifen | inhibition, % at 2 µM | 0.9% of 130,000 active | AID 1273;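 active = inhibition above the mean plus 3 SD, with well images judged a real hit on visual review, cut at about 60% in these data, passing the limit was not always enough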
PKD1 inh – inhibitors of human PKD1 kinase; 0.056% of 200,000 active; PKD1 kinase fluorescence polarization assay; Q15139; inhibition, %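 (about 10 µM by stock and volumes)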; AID 797;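 active = inhibition of 50% or more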;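 also: controls were vehicle for no effect and a reference inhibitor for full effect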
Target sequence (Q15139 whole entry, looked up): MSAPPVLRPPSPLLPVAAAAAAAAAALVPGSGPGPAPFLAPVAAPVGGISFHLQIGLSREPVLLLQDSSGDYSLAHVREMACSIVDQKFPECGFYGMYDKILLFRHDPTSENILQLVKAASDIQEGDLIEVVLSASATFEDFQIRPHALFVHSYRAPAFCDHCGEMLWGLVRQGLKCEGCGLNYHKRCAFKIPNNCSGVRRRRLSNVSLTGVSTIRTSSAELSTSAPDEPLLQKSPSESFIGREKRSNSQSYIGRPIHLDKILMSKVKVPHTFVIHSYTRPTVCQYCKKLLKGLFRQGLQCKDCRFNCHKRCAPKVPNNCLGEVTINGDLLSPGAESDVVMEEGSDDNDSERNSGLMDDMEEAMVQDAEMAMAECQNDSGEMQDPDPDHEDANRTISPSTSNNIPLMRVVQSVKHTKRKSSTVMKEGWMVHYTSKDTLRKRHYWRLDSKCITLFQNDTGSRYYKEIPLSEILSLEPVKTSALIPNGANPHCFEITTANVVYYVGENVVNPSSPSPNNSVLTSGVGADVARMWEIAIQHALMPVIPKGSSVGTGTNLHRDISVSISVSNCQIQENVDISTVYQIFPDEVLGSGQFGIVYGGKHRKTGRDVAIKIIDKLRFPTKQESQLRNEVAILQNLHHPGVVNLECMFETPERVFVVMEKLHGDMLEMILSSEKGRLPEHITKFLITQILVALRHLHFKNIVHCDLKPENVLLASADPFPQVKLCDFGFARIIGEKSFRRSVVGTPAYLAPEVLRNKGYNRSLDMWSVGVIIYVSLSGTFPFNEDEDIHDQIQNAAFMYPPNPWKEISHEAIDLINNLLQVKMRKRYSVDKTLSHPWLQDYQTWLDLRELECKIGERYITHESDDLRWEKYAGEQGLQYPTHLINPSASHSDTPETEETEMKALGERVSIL
GALR2 ag – agonists of human galanin receptor 2 (GALR2); O43603; GALR2-expressing cells, agonist activation read-out; activation, %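 (tested at 5 µM)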; 0.48% of 140,000 active; AID 803;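 active = above mean plus 3 SD of all compounds, about 5% in these data, not always enough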;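 also: 0% = vehicle buffer wells and 100% = reference agonist at full effect; tested in CHO reporter cells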
HSV augment – increases HSV replication in cells; HSV replication augmentation in cells, fold increase; maximum fold increase; 0.005% of 220,000 active; AID 1956;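 active = peak rise of 1.5-fold or more in the series; tested in PC3 cells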;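 also: first round at 10 µM; read as green reporter fluorescence; hits show the peak of a series up to 25 µM; 1 = signal of infected wells without compound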
Insulin prom inh cell count – recorded beside Insulin prom inh, whose call it bears; normalized cell count, %; measured here: cell count, toxicity; reference of the scale not given here;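 cells exposed to compound for 48 h; stained nuclei by imaging scaled within each plate; lower means fewer cells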
HSV augment primary fold – second read-out of HSV augment, no call of its own (marks repeat the call); fold increase; compound at 10 µM; measured here: primary screen fold increase 10 uM; tested in PC3 cells;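 GFP signal in the first replicate; 1 = infected wells without compound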
* hit, by the source's call; i = inactive; x = not tested or not shown.

A first look:
SMILES	RGS16-Gao HTS	Insulin prom inh	Insulin prom inh cell count	PKD1 inh	GALR2 ag	HSV augment	HSV augment primary fold
Cc1ccc(-c2nn(CC(=O)NCC3CCCO3)c(=O)c3ccccc23)cc1 (stereo not drawn)	107	50	117	2	-1.5	i	1.1
O=C(CSc1nnc(-c2ccco2)o1)c1ccc(F)c(F)c1	102	x	x	10	-1.3	i	1

The listing, from the start:
SMILES	RGS16-Gao HTS	Insulin prom inh	Insulin prom inh cell count	PKD1 inh	GALR2 ag	HSV augment	HSV augment primary fold
Cc1ccc(-c2nn(CC(=O)NCC3CCCO3)c(=O)c3ccccc23)cc1 (stereo not drawn)	107	50	117	2	-1.5	i	1.1
O=C(CSc1nnc(-c2ccco2)o1)c1ccc(F)c(F)c1	102	x	x	10	-1.3	i	1
COC(=O)c1cc(-c2ccc(C)cc2)n[nH]1	98	x	x	1	x	i	1.1
O=C(CN1CCN(c2ccccc2F)CC1)c1c[nH]c2ccc(F)cc12	103	-14	176	-4	-1.3	i	0.9
[O-]C1=N/[N+](=C/c2ccccc2Cl)CC1	99	-68	98	-3	-2.1	i	0.97
CCCCN1C(=O)c2ccc(C(=O)NCCN3C(=O)S/C(=C\c4cccnc4)C3=O)cc2C1=O	118	16	71	-6	-1.9	i	0.9
O=C(NCc1ccncc1)c1ccc(N2CCCC2)c([N+](=O)[O-])c1	96	33	128	0	x	i	0.91
Cc1ccsc1C(=O)c1sccc1C	103	20	120	-2	0.9	i	1.2
O=C(O)C1C2CCC(O2)C1C(=O)NCCC1=CCCCC1 (stereo not drawn)	101	52	103	-12	-1.8	i	0.84
C=C(Br)Cn1cnc2ccccc21	99	16	83	3	x	i	0.93
CCOC(=O)N/N=C\c1ccc(-c2cccc(C(F)(F)F)c2)o1	100	x	x	-8	x	i	0.98
CC(=O)NNc1nc(-c2ccccc2)c2cc(Br)ccc2n1	102	-8	71	-4	-1.6	i	1
N#Cc1cc2cc3c(cc2nc1SCC(=O)OC1CCCCC1)OCO3	94	32	124	-11	-1.4	i	1
COc1ccc(C2CC(c3cccs3)=NN2c2nc(-c3ccccc3)cs2)cc1OC (stereo not drawn)	99	12	134	-2	1.3	i	0.92
O=C(Nc1ccc(F)cc1)c1cccc(NC(=O)C2C3CC4OC(=O)C2C4C3)c1 (stereo not drawn)	100	-123	116	0	-1.8	i	0.96
Cn1nccc1NC(=O)Nc1ccc(Cl)cc1	91	x	x	x	x	i	1.1
CS(=O)(=O)N1N=C(c2ccc3nccnc3c2)CC1c1ccccc1 (stereo not drawn)	72	-70	71	-9	-2.7	i	0.95
O=C(CSc1nnnn1-c1ccccc1)N1CCc2ccccc21	102	61	117	-8	-1.9	i	1.1
CN(C(=O)COc1cc(C(F)(F)F)nn1C)c1ccccc1	104	x	x	2	x	i	1.1
O=C(COc1ccc(F)c(Cl)c1)c1ccc[nH]1	104	x	x	-3	-0.5	x	x

Just Insulin prom inh cell count, HSV augment and Insulin prom inh (two entries from above):
structure,Insulin prom inh cell count,HSV augment,Insulin prom inh
CC(=O)NNc1nc(-c2ccccc2)c2cc(Br)ccc2n1,71,i,-8
N#Cc1cc2cc3c(cc2nc1SCC(=O)OC1CCCCC1)OCO3,124,i,32

Record cards (already shown). Screens in order: RGS16-Gao HTS	Insulin prom inh	Insulin prom inh cell count	PKD1 inh	GALR2 ag	HSV augment	HSV augment primary fold
`O=C(Nc1ccc(F)cc1)c1cccc(NC(=O)C2C3CC4OC(=O)C2C4C3)c1` (stereo not drawn) as listed: 100	-123	116	0	-1.8	i	0.96
`N#Cc1cc2cc3c(cc2nc1SCC(=O)OC1CCCCC1)OCO3` as listed: 94	32	124	-11	-1.4	i	1
`O=C(O)C1C2CCC(O2)C1C(=O)NCCC1=CCCCC1` (stereo not drawn) as listed: 101	52	103	-12	-1.8	i	0.84
`CC(=O)NNc1nc(-c2ccccc2)c2cc(Br)ccc2n1` as listed: 102	-8	71	-4	-1.6	i	1
`COc1ccc(C2CC(c3cccs3)=NN2c2nc(-c3ccccc3)cs2)cc1OC` (stereo not drawn) as listed: 99	12	134	-2	1.3	i	0.92

Carrying on.
SMILES	RGS16-Gao HTS	Insulin prom inh	Insulin prom inh cell count	PKD1 inh	GALR2 ag	HSV augment	HSV augment primary fold
CC(C)C1N=C2c3ccccc3N=C(SCC(=O)c3ccc(O)c(O)c3)N2C1=O (stereo not drawn)	90	x	x	10	-1.4	i	0.83
Cn1c(=O)c2cc(S(=O)(=O)NCCC(=O)Nc3ccc(F)cc3F)ccc2n(C)c1=O	102	x	x	-3	x	i	1
O=C1c2ccc([N+](=O)[O-])cc2C(=O)N1CNc1ccccn1	100	i	127	-4	x	i	0.92
COc1ccc(Cc2nnc(SCC(=O)N3CCc4ccccc4C3)o2)cc1	96	x	x	3	-0.7	i	0.99
CN(C)S(=O)(=O)c1cccc(NC(=O)c2cc3c(cc2Cl)N2CCCCCC2=NS3(=O)=O)c1	97	31	40	-10	x	i	0.99
O=C(Nc1ccc(NC(=O)C2CCCCC2)nc1)c1cccs1	107	22	187	0	x	i	0.83
CCOC(=O)CN(C(=O)CSc1nnc(COc2ccc(OC)cc2)n1CC)c1ccccc1	106	x	x	x	x	i	1
COc1ccc(C2CCCN2C(=S)Nc2cccc(Cl)c2)cc1OC (stereo not drawn)	96	x	x	1	x	i	0.94
CCCC(CCC)C(=O)Nc1c[nH]c(=O)[nH]c1=O	105	-34	59	-10	-1.6	i	1
O=C(Nc1cccc(S(=O)(=O)Nc2ccccc2Cl)c1)c1ccc(Cl)nc1	56	31	113	2	-1.0	i	1.1
O=c1c2ccccc2nc2n1C1(CCCCC1)Cc1ccccc1-2	105	43	175	0	-2.9	i	0.97
CC1CC(OC(=O)C(O)c2ccccc2)CC(C)(C)N1C (stereo not drawn)	93	x	x	x	x	i	0.83
Cc1[nH]nc2nc3c(c(OC(=O)c4ccccc4)c12)c(=O)n(C)c(=O)n3C	89	x	x	-4	-2.2	x	x
O=C(c1ccc(Cl)cc1)N1CCN(c2ccc([N+](=O)[O-])c(NCc3cccnc3)c2)CC1	x	-8	47	1	-1.8	i	0.86
O=C1CCc2cc(S(=O)(=O)NC(C(=O)N3CCN(c4ccccn4)CC3)c3ccccc3)ccc2N1 (stereo not drawn)	103	29	110	9	x	i	0.99
CC(C)NC1=C(Cl)C(=O)c2ccccc2C1=O	104	10	34	-5	-4.8	i	0.75
CCCCN(CCCC)S(=O)(=O)c1c(C)[nH]c(=O)[nH]c1=O	110	73*	90*	-2	x	i	0.97
NC(=O)CSc1ncc(-c2ccccc2)[nH]1	127	0	105	0	-1.3	i	1
CCCNC(=O)c1[nH]c(C)c(C(C)=O)c1C	85	14	67	-8	-1.0	i	0.96
Cc1nc(SCc2ccc(O)c([N+](=O)[O-])c2)n[nH]1	94	-43	72	-12	0.1	i	0.97

6 of the entries above in order of the RGS16-Gao HTS value, ascending:
Compound	RGS16-Gao HTS	PKD1 inh	GALR2 ag	HSV augment	HSV augment primary fold
CCCNC(=O)c1[nH]c(C)c(C(C)=O)c1C	85	-8	-1.0	i	0.96
Cc1[nH]nc2nc3c(c(OC(=O)c4ccccc4)c12)c(=O)n(C)c(=O)n3C	89	-4	-2.2	x	x
Cc1nc(SCc2ccc(O)c([N+](=O)[O-])c2)n[nH]1	94	-12	0.1	i	0.97
O=c1c2ccccc2nc2n1C1(CCCCC1)Cc1ccccc1-2	105	0	-2.9	i	0.97
CCCCN(CCCC)S(=O)(=O)c1c(C)[nH]c(=O)[nH]c1=O	110	-2	x	i	0.97
NC(=O)CSc1ncc(-c2ccccc2)[nH]1	127	0	-1.3	i	1

(cont.)
SMILES	RGS16-Gao HTS	Insulin prom inh	Insulin prom inh cell count	PKD1 inh	GALR2 ag	HSV augment	HSV augment primary fold
NC(=S)N/N=C/c1ccc(/C=N/NC(N)=S)cc1	100	x	x	x	x	i	0.9
CCOC(=O)c1c(CN2CCOCC2)n(-c2ccccc2)c2cc(Br)c(O)c(CN(C)C)c12	105	-15	88	-8	-1.9	i	0.97
CN(C)NC(=S)Nc1ccc2nc(-c3ccccn3)c(-c3ccccn3)nc2c1	104	x	x	1	0.2	i	1.1
CCCNC(=O)C1=C(C)C(=O)OC12CCC(C)CC2 (stereo not drawn)	103	x	x	-11	-2.8	i	1
CC(C)N1CN(c2ccccc2)C(=S)N(c2ccccc2)C1	104	x	x	x	x	i	1
Cc1ccc(-c2n[nH]c3c2CCC3)cc1	103	55	49	-3	-3.7	i	0.75
O=c1[nH]c2ccc(S(=O)(=O)N3CCC(Cc4ccccc4)CC3)cc2o1	102	0	55	-9	-0.8	i	1
O=C(N/N=C/c1ccc(O)cc1)c1ccc(COc2cc(Cl)ccc2Cl)o1	106	x	x	7	0.9	i	0.97
CCC1CC(CSC(=N)N)OC1=O (stereo not drawn)	96	x	x	x	x	i	1.1
COC(=O)c1ccccc1NC(=O)CSCC(=O)Nc1ccccc1OC	117	17	172	1	-2.5	i	0.97
CCCc1cnc(N2CCN(C(=O)c3c(-c4ccccc4)noc3C)CC2)nc1	100	x	x	x	x	i	1
Cc1sc2ncn(CC(=O)Nc3c(F)cccc3F)c(=O)c2c1S(=O)(=O)N1CCC(C)CC1	100	x	x	-1	x	i	0.99
CN(C)S(=O)(=O)N1CCN(S(=O)(=O)c2ccc(F)cc2)CC1	103	43	131	3	-1.7	i	0.92
c1ccc(-c2nn3c(Cn4nnc5ccccc54)nnc3s2)nc1	74	20	104	4	-2.3	i	0.81
CCc1nc2scc(-c3ccc(C)cc3)c2c(=O)n1N	107	-14	109	-2	-0.8	i	0.93
O=C(Nc1ccn(Cc2c(F)c(F)cc(F)c2F)n1)c1ccc(COc2ccccc2Cl)cc1	102	0	67	4	-1.9	i	1
CC(C)Sc1n[nH]c(=O)n1-c1cccc(C(F)(F)F)c1	89	x	x	x	x	i	1.1
Cc1ccc(NC(=O)c2ccn(C)n2)c(Br)c1	103	36	115	4	-0.7	i	0.95
CCC(CC)NC(=O)CO/N=C/c1ccccc1OC(F)F	47	-33	43	-5	-1.5	i	1
COc1ccc2cc(C)c3nnc(SCC(=O)Nc4cc(OC)c(OC)cc4C(=O)O)n3c2c1	100	x	x	-8	x	i	1.1
C=CCN1C(=O)C(Cc2ccccc2)S/C1=N/N=C/c1cccs1 (stereo not drawn)	103	-25	121	-1	-1.1	i	0.98
CC(C)=CCC(C)(C)C1OCCN1C(=O)c1ccccc1 (stereo not drawn)	91	x	x	3	-0.5	i	1
CCOc1cccc(C2c3c(oc4cc(C)c(C)cc4c3=O)C(=O)N2CCCN(C)C)c1 (stereo not drawn)	103	x	x	-2	-2.1	i	1.2

Hits appear at their usual frequency, and some 1.2% of all compounds hit somewhere here.
